TRPML1 agonist = agonists of human TRPML1 channel; Q9GZU1; TRPML1-expressing cells, Ca2+ dye fluorescence, FDSS; host cell line not named in the record; reference of the full effect not given here; activation, % (concentration not given with the values); hit rate 0.12% among 410,000; in the data active = activation above about 50%; inconclusive = about 30% to 50%; inactive = below about 30%; note: 0% is about no effect; the text of the record puts the active cut at 80%
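Cells: TRPML1-DL, 1X Tet inducer, ~16 h at 37 degrees C/5% CO2. Dye: ABD Ca8 no-wash + quencher, 45-90 min RT. Read: 10 s baseline, compound add, 110 s agonist phase; 54-4 EC80 (4uM final), 110 s antagonist phase.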
D2 ag = agonists of human D2 dopamine receptor (beta-arrestin); P14416; DiscoveRx PathHunter D2 beta-arrestin, luminescence, 90 min; 100% = 57 uM dopamine signal; activation, % (no concentration beside the values); hit rate 0.084% among 360,000; AID 624465; in the data active = activation above about 40%; inconclusive = about 15% to 40%; inactive = below about 15%; note: compound concentration not given in the record; the text of the record calls up to 30% inactive
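Agonist mode: compounds alone added to overnight-plated D2 PathHunter cells for 90 min at 37 C, with 57 uM final dopamine (EC100) defining full response. Beta-arrestin recruitment detected by chemiluminescent reagent, read after 1 h at ambient temperature.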
TRPML1 inh = human mucolipin-1 channel inhibition | Q9GZU1 | TRPML1-inducible cells, Ca2+ dye fluorescence, FDSS; active compounds read low; inhibition of EC80 agonist-evoked calcium signal | activity change, negative = inhibition, % (concentration not given with the values) | hit rate 0.02% among 390,000; in the data active means activity change below about -50%; inconclusive means about -30% to -50%; inactive means above about -30%;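 note: stimulus is agonist 54-4 at its EC80 concentration; % is set by controls: 0 for no effect and ±100 for the full control effect; the text of the record puts the active cut at -80%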
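Tet-induced TRPML1-DL cells loaded with Ca8 no-wash calcium dye were read kinetically on FDSS. Compound addition was followed by EC80 agonist 54-4 (4 uM final); inhibition was read over 110 s.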
PINK1 expr mod = modulators of PINK1 expression. PINK1 immunofluorescence, high-content cytometry, 24 h. Potency, µM (doses to about 76.6 µM), for inactives: at the top dose activation (PINK1 increase), hits mostly activators. hit rate 0.2% among 410,000; active = well fitted activation curve with a large enough effect; inconclusive = small, poorly fitted or top-dose-only effect; inactive = flat fitted curve, though single readings scatter; cell line not stated here;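 note: potency is the fitted concentration of half-maximal effect; % of control where 0% means no effect; nearly all actives have a fitted effect of over 65% in size; a mitochondrial uncoupler was the plate control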
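PINK1 protein level read as immunofluorescence by microplate cytometer in a fixed, stained stable cell line after 24 h exposure to five compound concentrations, with CCCP as control.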
Six1-Eya2 inh = blocks human Six1 binding to Eya2. AlphaScreen GST-Six1/His-Eya2 binding, biochemical; active compounds read low; control for the full effect not named in the record. activity change, % (test concentration not listed). hit rate 0.56% among 360,000. AID 651725; in the data active = activity change below about -65%; inconclusive = about -30% to -65%; inactive = above about -30%; note: % is set by controls: 0 for no effect and ±100 for the full control effect
Target sequence (O00167 whole entry, looked up): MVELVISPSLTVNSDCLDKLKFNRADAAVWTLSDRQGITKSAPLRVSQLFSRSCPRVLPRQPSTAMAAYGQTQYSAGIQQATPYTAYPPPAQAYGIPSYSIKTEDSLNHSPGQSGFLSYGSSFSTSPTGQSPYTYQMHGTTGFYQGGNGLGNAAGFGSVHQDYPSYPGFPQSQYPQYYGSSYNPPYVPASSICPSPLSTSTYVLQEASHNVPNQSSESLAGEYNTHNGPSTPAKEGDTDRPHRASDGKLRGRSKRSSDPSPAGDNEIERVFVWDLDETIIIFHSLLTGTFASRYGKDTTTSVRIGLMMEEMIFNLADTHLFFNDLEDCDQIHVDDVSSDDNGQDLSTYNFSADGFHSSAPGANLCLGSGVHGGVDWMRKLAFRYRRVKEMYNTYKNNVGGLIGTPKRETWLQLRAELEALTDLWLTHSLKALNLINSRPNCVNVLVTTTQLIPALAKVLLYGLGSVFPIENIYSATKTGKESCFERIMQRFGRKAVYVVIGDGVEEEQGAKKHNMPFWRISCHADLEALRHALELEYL
Target sequence (Q15475 whole entry, looked up): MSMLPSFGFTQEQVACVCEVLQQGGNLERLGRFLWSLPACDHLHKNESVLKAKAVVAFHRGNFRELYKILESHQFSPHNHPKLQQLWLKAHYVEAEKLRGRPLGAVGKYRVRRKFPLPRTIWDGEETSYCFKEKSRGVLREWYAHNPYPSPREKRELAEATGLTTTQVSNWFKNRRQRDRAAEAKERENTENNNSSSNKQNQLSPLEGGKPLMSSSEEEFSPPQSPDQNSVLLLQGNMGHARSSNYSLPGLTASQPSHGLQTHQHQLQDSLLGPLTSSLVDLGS
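Compounds are tested against tagged Six1 and Eya2 proteins bridged by glutathione donor and nickel acceptor beads; after a one-hour incubation at 37 °C without light, AlphaScreen emission is recorded.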
D2 potentiator = positive allosteric modulators of human D2 dopamine receptor; DiscoveRx D2 beta-arrestin cells, luminescence, 90 min; 100% = 57 uM dopamine signal; potentiation, % (test concentration not listed); hit rate 0.23% among 360,000; active = potentiation of 50% or more; inconclusive = 30% to 50%; inactive = 30% or less;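 note: compound concentration not given in the record; tested on top of an EC20 dose of dopamine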
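PathHunter beta-arrestin assay in DiscoveRx D2 cells. Compounds were added with an EC20 of dopamine (50 nM final) for 90 min at 37 deg C. Luminescence was read 1 h after detection reagent, with 57 uM dopamine as the EC100 control.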
* hit, by the source's call; ? = inconclusive; . = not tested or not shown; & = joins results of further samples; [ ] = remark or other dose.

SMILES	TRPML1 agonist	D2 ag	TRPML1 inh	PINK1 expr mod	Six1-Eya2 inh	D2 potentiator
NC(=O)CSc1nc2scc(-c3ccco3)c2c(=O)n1-c1ccccc1	3.7	-2.3	-13.6	-2.2%	?	-8.4
COc1ccc(Br)cc1CNC(=O)CCC(=O)n1nc(C)c2ccccc21	-0.6	0.3	2.9	-0.5%	4.3	-1.1
O=C(O)c1ccccc1C(=O)c1cccc2c(Br)cccc12	1.7	-3.4	6.3	7.9%	-1.1	6.6
Cc1nn2c(-c3ccccc3)ccnc2c1-c1ccccc1	-0.2	-3.3	-2.2	5.0%	8.4	-6.2
O=C(Nc1nc2c(F)cc(F)cc2s1)C1CCN(C(=O)c2ccc(F)cc2)CC1	0.0	-1.2	25.3	?	0.9	-0.2
COc1ccc(NC(=O)CSc2nccn2Cc2ccc(F)cc2)cc1	2.6	-0.6	20.9	-2.8%	-5.4	-13.6
Cc1c(Cl)cccc1NC(=O)c1ccccc1-c1ccccc1C(=O)O	0.3	-3.3	4.3	0.4%	0.7	-12.5
COC(=O)Oc1ccc(/C=N/NS(=O)(=O)c2ccccc2)cc1OC	-0.6	3.6	14.1	0.6%	-3.6	-4.2
CN(CCCC(=O)O)S(=O)(=O)c1ccc2c(c1)C(=O)c1cc(S(=O)(=O)N(C)CCCC(=O)O)ccc1-2	0.0	-2.3	-1.2	0.9%	-5.3	-3.8
CC(C)(C)OC(=O)N1CCC[C@H]1C(=O)Nc1ccc(S(=O)(=O)C(F)F)cc1	0.2	-0.5	9.6	0.4%	3.9	-4.1
COCCn1c(=O)[nH]c2cc(C(=O)Nc3cccc(F)c3)ccc2c1=O	-0.1	2.9	7.3	1.7%	-9.1	-7.1
CCCCn1c(N)c(N(CC(C)C)C(=O)c2cccs2)c(=O)[nH]c1=O	-0.3	0.6	-5.9	-0.3%	9.2	5.9
CCOc1ccc(CCNC(=O)COC(=O)CNC(=O)c2ccc(Br)o2)cc1OCC	1.0	-1.8	-5.7	-1.2%	-2.4	-67.6
COC(=O)c1ccc(OC(=O)C2CSC3(C)CCC(=O)N23)cc1 (configuration not stated)	0.3	-5.0	0.0	-1.9%	4.1	-17.1
COCCCn1c(C(=O)NCCC2=CCCCC2)cc2c(=O)n3cccc(C)c3nc21	-0.7	4.0	9.6	5.7%	4.9	6.5
Cn1c(=O)n(-c2ccc(Cl)cc2)c(=O)c2c3c(sc21)COC(C)(C)C3	0.5	1.1	13.7	-1.2%	0.0	27.2
COc1ccc(-n2cc(CNCCc3ncc(C)[nH]3)c(-c3ccccc3Cl)n2)cc1	0.0	0.4	14.2	-2.7%	-9.6	-16.8
COc1cc2oc3ccccc3c(=O)c2cc1OC	0.2	-4.4	0.7	0.2%	-15.3	0.5
CC(C)c1ccc(NC(=O)CCNS(=O)(=O)c2cccc3nsnc23)cc1	0.9&-0.3	-0.5	-16.2&-13.5	-0.2%	-0.8	-5.5
COc1ccc([C@H]2/C=C\CN(C(=O)CC(C)(C)C)[C@@H](C)C(=O)N2Cc2ccc(F)cc2)cc1	0.1	-1.3	32.1	5.2%	-7.3	-5.1
O=C(c1ccco1)N1CCN(C(c2ccccc2F)c2nnnn2CC2CCCO2)CC1 (configuration not stated)	1.4	-0.1	37.7	-0.2%	8.0	1.6
CC(=O)N(Cc1cccnc1)c1nc2cc(C)cc(C)c2s1	2.5	.	9.9	-0.3%	.	.
CC(C)(C)c1ccc(OCCn2cc(C(=O)c3ccco3)c3ccccc32)cc1	2.8	.	-2.8	-0.7%	.	.
CN1CCN(c2nnc(-c3ccc(F)cc3)c3ccccc23)CC1	0.1	-5.2	-9.5	-0.5%	0.7	-17.4
Cc1ccc(C)c(Cn2nnc3c(=O)[nH]c(C(=O)NCc4ccco4)nc32)c1	1.5	4.0	5.4	5.1%[38.3 µM]	1.0	-5.6
O=C(NCCc1cccc(Cl)c1)c1ccc(Cl)c([N+](=O)[O-])c1	0.8	-4.9	6.8	-1.6%	-17.7	-10.1
Cc1cc(C)cc(N(C(C)C(=O)NC2CCCC2)S(C)(=O)=O)c1 (configuration not stated)	2.4	-2.0	-16.6	0.8%[38.3 µM]	1.6	-5.2
CCC(CC)c1nnc(NC(=O)COc2ccc3c(c2)OCO3)s1	-0.1	-3.2	-5.0	0.8%	4.7	-0.3
O=C(Nn1c(SCc2ccc(F)cc2)nc2ccsc2c1=O)c1ccccc1	-0.5	-5.7	15.1	0.3%	-27.0	-12.4
COn1c(=O)c(=O)n(O)c2ccccc21	0.2	-3.0	-18.6	1.6%	16.6	14.9
C[C@@H]1C(c2cccc(Cl)c2)=NN(c2ccc(Br)cc2)[C@H]1C(=O)N1CCOC1=O	-0.9	1.3	36.2	2.9%	79.6	.
CC(C)c1cc(=O)[nH]c(SCC(=O)NC2CCCC2)n1	-0.4	-1.4	2.2	-0.2%	4.8	-4.0
COC(=O)C1CCN(C(=O)NC(C)(C)C)CC1	1.2	-2.5	25.8	-0.8%	-2.6	1.8
CC1CCN(C(=O)COC(=O)Cn2cnc3c2c(=O)n(C)c(=O)n3C)CC1	1.3	2.0	8.2	-3.1%	8.7	-2.5
FCCCOc1ccc(-c2ccnc3ncnn23)cc1	-1.2	3.0	-14.0	-0.3%	3.0	-3.2
CCN(C(=O)C(=O)Nc1ccc2nc3n(c(=O)c2c1)CCCCC3)c1ccc(F)cc1	4.5	.	23.8	0.2%	.	.
CSc1ncccc1C(=O)N(C)CC(=O)Nc1ccc(Cl)cc1	0.7	-10.6	-13.0	-0.6%	24.1	-34.5
Cc1ccn2c(=O)nc(SCC(=O)c3ccccc3)nc2c1	-0.9	-2.7	2.5	0.9%	-5.4	0.7
CC(C)NC(=O)[C@H](CSCc1ccccc1)N1Cc2ccccc2C1=O	-0.2	0.9	3.5	0.4%	16.4	-5.2
CC(C)CCN(C(=O)c1ccncc1)c1c(N)n(Cc2ccccc2)c(=O)[nH]c1=O	-0.3	-0.7	2.0	3.4%	-8.2	-2.4

A different layout for two compounds above:
| Structure | TRPML1 agonist | D2 ag | TRPML1 inh | PINK1 expr mod | Six1-Eya2 inh | D2 potentiator |
| --- | --- | --- | --- | --- | --- | --- |
| O=C(Nn1c(SCc2ccc(F)cc2)nc2ccsc2c1=O)c1ccccc1 | -0.5 | -5.7 | 15.1 | 0.3% | -27.0 | -12.4 |
| COn1c(=O)c(=O)n(O)c2ccccc21 | 0.2 | -3.0 | -18.6 | 1.6% | 16.6 | 14.9 |

Remaining list, next part.
SMILES	TRPML1 agonist	D2 ag	TRPML1 inh	PINK1 expr mod	Six1-Eya2 inh	D2 potentiator
C[C@@H]1CN([C@@H](C)CO)S(=O)(=O)c2ccc(Br)cc2O[C@@H]1CN(C)Cc1ccccn1	-0.1	-8.0	0.4	0.9%	-4.0	3.9
COCC(C)N=C1NN=C(c2cccs2)C(CC(=O)O)S1 (configuration not stated)	1.2	-7.6	-22.8	-0.9%	-6.1	-2.8
CCCc1cc(N2CCCC(C(=O)NCC)C2)n2ncnc2n1 (configuration not stated)	0.0	1.4	16.3	11.0%[38.3 µM]	3.2	-1.4
CCN(Cc1ccccc1)C(c1ccc(C)cc1)c1nnnn1C(C)(C)CC (configuration not stated)	1.9	-9.1	-8.7	2.9%	13.8	-16.2
CCCCN1CCNC[C@@H]1Cc1ccccc1	0.1	-4.7	-13.0	2.2%	3.2	-11.2
COC(=O)C1=CN(Cc2ccc(OC)c(OC)c2)C=C(C(=O)OC)C1c1cccs1	3.4	8.7	4.7	1.9%	30.0	16.6
Cn1c(=O)n(C)c2cc(/C=C(/C#N)C(=O)NCc3ccco3)ccc21	-1.2	-3.9	-10.1	13.5%	-2.3	-14.2
O=C(Nc1ccnn1C1CCN(C(=O)c2ccc(C(F)(F)F)cc2)CC1)C1CC1	-0.4	-2.2	-6.5	0.9%	2.6	-5.3
COc1ccccc1OCCNC(=O)c1cccs1	-0.6	-0.8	-3.7	0.9%	12.4	-7.5
C1CN(c2nc3nonc3nc2N2CCSCC2)CCO1	.	-2.0	.	-1.0%	-0.6	-9.0
O=C1CC(NC23CC4CC(CC(C4)C2)C3)C(=O)N1c1ccc2c(c1)OCO2 (configuration not stated)	3.9	-2.1	17.0	0.5%[38.3 µM]	3.7	-4.5
N/C(=N\OC(=O)CCCN1C(=O)c2ccccc2C1=O)c1ccc(Br)cc1	-0.9	-1.2	5.7	1.8%	6.2	12.7
C=CCn1c(SCC(=O)N2CCOCC2)nc(O)cc1=O	-1.0	-2.4	-7.0	1.0%	1.4	25.1
COc1cc(CCCN2C(=S)NC[C@H]2Cc2ccc(O)cc2)cc(OC)c1OC	-0.6	0.8	-6.4	1.1%	1.5	2.8
O=C(c1cccc(NS(=O)(=O)c2cccc(C(F)(F)F)c2)c1)N1CCOCC1	0.3	-2.9	11.4	1.1%	-0.5	-2.0
COc1ccc(NC(=O)CC(Cc2ccccc2)C(=O)O)cc1 (configuration not stated)	-1.1	-1.0	0.7	1.3%	3.7	-4.9
Cc1nc(C)c(C(=O)Nc2cccc(C)c2C)o1	-0.2	-1.3	31.4	2.2%	-7.5	-4.7
COc1ccc(N2CC(C(=O)N[C@@H](C)C(=O)NC3CCCC3)CC2=O)cc1 (some centres not stated)	0.0	1.7	-10.9	-1.5%	3.7	-10.8
O=C(CCC1CCCN(C(=O)c2cccc(F)c2)C1)N1CCN(c2ccccn2)CC1 (configuration not stated)	0.9	-0.2	0.1	1.0%	4.1	4.6
COc1ccc(N(CC(=O)NC2CCCC2)C(=O)c2ccc(C)s2)c(OC)c1	3.2	-3.0	-14.0	2.0%	-1.5	-3.7
COc1ccccc1CNC(=O)CSc1nc2c(oc3ccccc32)c(=O)n1CC1CCCO1 (configuration not stated)	-0.3	-5.5	-9.0	6.1%	3.1	-5.3
O=C(CCC(=O)N1CCSc2ccccc21)NCc1ccc(Cl)cc1	-0.1	2.0	12.1	-0.9%	-2.4	-4.8
O=C(NCC1CCCO1)c1ccc(Cl)c(NS(=O)(=O)c2ccc(F)cc2)c1 (configuration not stated)	-0.5	-0.3	-4.2	-0.3%	0.1	-4.4
Cc1ccc(CN2C(=O)CCC2C(=O)NCCCN2CCCCC2C)cc1 (configuration not stated)	1.2	-1.5	-11.1	-0.1%	-1.0	1.6
COc1ccc(-c2csc3ncnc(N4CCN(S(=O)(=O)c5ccc(Cl)s5)CC4)c23)cc1	1.9	-3.0	-6.6	7.3%	-0.5	6.5
O=C(N[C@@H](c1ccccc1)[C@@H]1C[C@H]1C(=O)O)OCc1ccccc1	-0.7	1.3	1.3	0.0%	-1.5	-8.2
CCc1c(C)c(C#N)c2nc3ccccc3n2c1NC	1.4	-1.5	-16.0	3.8%	6.1	-2.6
CCc1ccc(NC(=O)C(=O)NCC(c2cccnc2)N2CCc3ccccc3C2)cc1 (configuration not stated)	-0.8	.	4.3	0.3%	.	.
Cc1cccc(-n2nnnc2SCC(=O)NCC2CCCO2)c1 (configuration not stated)	0.8	0.1	-18.4	0.3%	4.2	-4.3
CSc1cccc(CNC(=O)C2CCC(=O)N(Cc3cccc(C(F)(F)F)c3)C2)c1 (configuration not stated)	0.3	-3.4	-1.0	-1.0%	-0.5	-14.4
c1ccc(-c2nnc(N3CCCC3)nc2-c2ccccc2)cc1	1.4	-1.5	10.7	-1.1%	-1.3	-12.8
CCN1CCN(C(=O)c2ccc3c(c2)N(Cc2ccc(Cl)cc2)C(=O)c2ccccc2S3=O)CC1 (configuration not stated)	0.6	.	-17.3	0.1%	.	.

Screens from PubChem.
